Screening results deposited in PubChem BioAssay by National Center for Advancing Translational Sciences (NCATS).
StopGo reporter: High Throughput Screening for Foot and Mouth Disease Virus Antivirals. human cells with a luciferase reporter of 2A StopGo recoding; control for the full effect not named in the record. Potency, µM (highest dose often 57.9 µM), for inactives: at the highest dose signal change, negative = less light. hit rate 1.2% among 410,000. AID 1159524, 2015; active = well fitted falling curve with a large enough effect; inconclusive = small, poorly fitted or top-dose-only effect; inactive = no such curve, though single readings can be large or run the other way; tested in HEK293T cells; note: % is set by controls: 0 for no effect and ±100 for the full control effect; nearly all actives have a fitted effect of over 45% in size; luciferase light after 4 h
SARS PLpro yeast: qHTS of Yeast-based Assay for SARS-CoV PLP. S. cerevisiae expressing SARS-CoV PLpro, growth rescue; control for the full effect not named in the record. hit rate 0.19% among 330,000. Potency, µM (doses to about 32.9 µM), for inactives: at the top dose activity, positive = growth rescue. AID 485353, 2010; active means well fitted rising curve with a large enough effect; inconclusive means small, poorly fitted or top-dose-only effect; inactive means no such curve, though single readings can be large or run the other way; note: 0% is about no effect; nearly all actives have a fitted effect of over 55% in size; growth read by luminescence after 48 h
NS1 inh: qHTS Assay for Inhibitors of Influenza NS1 Protein Function | S. cerevisiae slowed by influenza A NS1, growth recovery by OD600 | hit rate 0.4% among 270,000 | Potency, µM (series often up to 46.1 µM), without a hit: at the highest dose activity, positive = more growth; active means well fitted rising curve with a large enough effect; inconclusive means small, poorly fitted or top-dose-only effect; inactive means no such curve, though single readings can be large or run the other way; note: nearly all actives have a fitted effect of over 50% in size
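In this qHTS, NS1 from influenza A is expressed in budding yeast, where it slows growth. Cells are switched from glucose to 2% galactose medium (pH 6.0, -URA), treated with compound, and growth recovery is read at OD600.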
MARV entry inh: qHTS for inhibitors of binding or entry into cells for Marburg Virus | hit rate 1.8% among 300,000 | Potency, µM (highest dose often 37.8 µM), for inactives: at the top dose activity change, negative = inhibition, actives largely listed as inhibitors | Marburg virus pseudotyped entry inhibition, cell reporter; control for the full effect not named in the record; about a third of the inactives were read at about 46 µM | AID 540276, 2011; active = well fitted inhibition curve with a large enough effect; inconclusive = small, poorly fitted or top-dose-only effect, or effect the other way; inactive = flat fitted curve, though single readings scatter; tested in HEK293 cells; about a fifth of its hits are not listed in these tables; note: % is set by controls: 0 for no effect and ±100 for the full control effect; luciferase read-out
RE007 growth inh: qHTS Assay for Inhibitors of the HIV-1 protein Vpr; S. pombe RE007 Vpr strain, BacTiter-Glo ATP luminescence, 24 h; control for the full effect not named in the record; Potency, µM (doses to about 92.2 µM), for inactives: at the highest dose activity change, negative = less growth; hit rate 0.21% among 360,000; active = well fitted falling curve with a large enough effect; inconclusive = small, poorly fitted or top-dose-only effect; inactive = no such curve, though single readings can be large or run the other way;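 note: % is set by controls: 0 for no effect and ±100 for the full control effect; nearly all actives have a fitted effect of over 50% in size; the assay follows cell death caused by Vpr and the record does not say whether a fall means rescue or toxicity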
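Fission yeast RE007 carrying one integrated HIV-1 vpr copy, seeded at OD 0.01 in PMG+AL medium with 23 nL pinned compound. Grown 24 h at 30 degrees; viability read by BacTiter-Glo luminescence after 5 min.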
Cruzain inh Det: qHTS Assay for Promiscuous and Specific Inhibitors of Cruzain (with detergent). hit rate 0.43% among 200,000. Potency, µM, for the others: max response, negative = inhibition, actives largely listed as inhibitors. purified cruzain, Z-FR-AMC fluorescence, 0.01% Triton. Cruzipain (Trypanosoma cruzi), P25779;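 note: plate controls were neutral wells for no effect and buffer without enzyme for full effect; nearly all actives have a fitted effect of over 40% in size; top concentration of the series not given in the record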
Target sequence (P25779 123-467 limits assumed): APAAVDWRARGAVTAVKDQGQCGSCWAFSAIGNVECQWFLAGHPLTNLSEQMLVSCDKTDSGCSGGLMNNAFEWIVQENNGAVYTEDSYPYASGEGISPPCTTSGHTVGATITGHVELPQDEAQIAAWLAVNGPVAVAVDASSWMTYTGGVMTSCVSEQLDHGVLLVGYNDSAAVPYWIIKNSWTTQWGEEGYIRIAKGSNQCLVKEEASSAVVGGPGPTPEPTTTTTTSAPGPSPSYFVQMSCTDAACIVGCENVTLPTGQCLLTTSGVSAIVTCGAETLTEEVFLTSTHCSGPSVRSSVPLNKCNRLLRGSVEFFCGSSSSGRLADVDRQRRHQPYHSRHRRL
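Sodium acetate buffer (100 mM, pH 5.5) containing 5 mM DTT and 0.01% Triton X-100 hosted 1.5 nM cruzain and test compound for 15 min at room temperature. Cleavage of 2 uM Z-FR-AMC was then tracked by fluorescence.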
Cruzain inh noDet: qHTS Assay for Promiscuous and Specific Inhibitors of Cruzain (without detergent); Cruzipain (Trypanosoma cruzi), P25779; hit rate 2.3% among 200,000; AID 1476, 2009; Potency, µM, for the others: max response, negative = inhibition, actives largely listed as inhibitors; purified cruzain, Z-FR-AMC fluorescence, no detergent;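 note: plate controls were enzyme without inhibitor for no effect and buffer without enzyme for full effect; nearly all actives have a fitted effect of over 40% in size; top concentration of the series not given in the record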
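Purified cruzain at 1.5 nM, pre-incubated 15 min with compound at room temperature in 100 mM sodium acetate pH 5.5, 5 mM DTT, 0.00005% Triton X-100. Reaction started with 2 uM Z-FR-AMC; AMC fluorescence increase over 60 s gives rate.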
LASV entry inh: qHTS for Inhibitors of binding or entry into cells for Lassa Virus. Lassa virus pseudotype entry inhibition, cell reporter; control for the full effect not named in the record. AID 540256, 2011. hit rate 1.2% among 300,000. Potency, µM (series often up to 37.9 µM), inactives show at the top dose activity change, negative = inhibition, actives largely listed as inhibitors; active means well fitted inhibition curve with a large enough effect; inconclusive means small, poorly fitted or top-dose-only effect, or effect the other way; inactive means flat fitted curve, though single readings scatter; tested in HEK293 cells; note: % is set by controls: 0 for no effect and ±100 for the full control effect; nearly all actives have a fitted effect of over 50% in size; luciferase read-out
* marks the source's active call; other numbers are inactive results; u = inconclusive; x = not tested or not shown; [ ] = dose if it differs, or a comment. Unless noted, calls come from the whole dose curve; as a rule, active = well fitted curve in the direction sought with a large enough effect; inconclusive = small, poorly fitted or top-dose-only effect, or another doubt; inactive = no such curve, though single readings can be large; an effect the other way counts as inactive or inconclusive. Potency is the fitted concentration of half-maximal effect. This is a random part of the collection. About 4.7% of those tested had a hit in this group.

structure | StopGo reporter | SARS PLpro yeast | NS1 inh | MARV entry inh | RE007 growth inh | Cruzain inh Det | Cruzain inh noDet | LASV entry inh
COc1cccc(OCc2nc3ccccc3n2CCOc2ccc(C)cc2)c1 | -14% | x | x | 0%[46.1 µM] | x | -5.7% | -3% | -1%[46.1 µM]
Cc1cc(-c2ccccc2)nc2cc(C(=O)OC(C)C)nn12 | -8% | 6% | -6% | x | 15% | x | x | x
COc1ccc(NC(=O)c2sc3nc(C)c(C(=O)Nc4ccc(C)cc4C)c(-c4ccc(C)o4)c3c2N)cc1 | -8% | x | x | 4%[46.1 µM] | x | -3.8% | 8% | -21%[46.1 µM]
COc1ccc(C(=O)NC2CCCc3c2cnn3-c2ccccc2F)cc1OC (stereo not given) | u | -3% | 7% | x | 3% | x | x | x
CCOC(=O)c1cn(-c2c(C)n(C)n(-c3ccccc3)c2=O)c2c(F)c(F)c(F)cc2c1=O | -18% | 2% | -3% | -16%[46.1 µM] | -15% | x | x | -10%
COc1ccc(NCc2ccsc2)cc1 | 30% | 9% | 9% | x | -5% | x | x | x
C=CCn1c(SCC(=O)NCCCC(=O)OCC)nc2scc(-c3ccco3)c2c1=O | -15% | -1% | x | 14%[46.1 µM] | 11% | x | x | x
CS(=O)(=O)N(CC(=O)Nc1ccc(S(=O)(=O)N2CCCC2)cc1)c1cccc(F)c1 | -25% | 1% | -13% | x | 7% | x | x | x
CN(C)c1cccc(C(=O)Nc2ccc(-c3nc4ccccc4s3)cc2)c1 | u | x | x | x | x | 0.0% | -7% | -21%[46.1 µM]
O=C(Nc1cccc(-c2cccc(F)c2)c1)C1CCN(C2CCC2)CC1 | u | 8% | -8% | x | -8% | x | x | x
CC(NS(=O)(=O)c1ccc(Cl)cc1)C(c1cccs1)N1CCN(C)CC1 (stereo not given) | -14% | 20% | -2% | -14% | 13% | -1.1% | -4% | u
C/C1=C\CCC2C(/C=C(\C)CC1)OC(=O)C2CN1CCCCC1 (stereo not given) | -19% | -3% | -6% | u | -11% | x | x | u
COc1cccc(NC(=O)CSc2nc3cc(OC)c(OC)cc3c3nc(-c4ccccc4)nn23)c1 | -4% | x | x | u | x | -0.6% | 2% | 1%[46.1 µM]
O=C(CSc1n[nH]c(=O)[nH]c1=O)c1ccc(Cl)cc1Cl | -9% | 0% | 1% | 4% | -1% | x | x | 12%
O=C(CCN1C(=O)c2ccccc2C1=O)NCc1ccc(F)cc1 | -4% | 0% | -7% | x | 4% | x | x | x

Reprinted at random: 5 compounds from above, in no set order.
structure | StopGo reporter | SARS PLpro yeast | NS1 inh | MARV entry inh | RE007 growth inh | Cruzain inh Det | Cruzain inh noDet | LASV entry inh
COc1ccc(NC(=O)c2sc3nc(C)c(C(=O)Nc4ccc(C)cc4C)c(-c4ccc(C)o4)c3c2N)cc1 | -8% | x | x | 4%[46.1 µM] | x | -3.8% | 8% | -21%[46.1 µM]
O=C(CSc1n[nH]c(=O)[nH]c1=O)c1ccc(Cl)cc1Cl | -9% | 0% | 1% | 4% | -1% | x | x | 12%
C=CCn1c(SCC(=O)NCCCC(=O)OCC)nc2scc(-c3ccco3)c2c1=O | -15% | -1% | x | 14%[46.1 µM] | 11% | x | x | x
O=C(CCN1C(=O)c2ccccc2C1=O)NCc1ccc(F)cc1 | -4% | 0% | -7% | x | 4% | x | x | x
O=C(Nc1cccc(-c2cccc(F)c2)c1)C1CCN(C2CCC2)CC1 | u | 8% | -8% | x | -8% | x | x | x

(continued)
structure | StopGo reporter | SARS PLpro yeast | NS1 inh | MARV entry inh | RE007 growth inh | Cruzain inh Det | Cruzain inh noDet | LASV entry inh
COc1ccc(CCNC(=O)c2ccc3c(Cl)c4c(nc3c2)CCCC4)c(OC)c1 | u | x | x | 1%[46.1 µM] | x | -1.7% | 16% | -22%[46.1 µM]
COc1cc(NC(=O)c2nccnc2C(=O)O)cc(OC)c1 | -13% | 5% | 7% | x | 3% | 0.2% | -4% | x
CCOC(=O)N/N=C(\C)c1ccc(Oc2ncccn2)cc1 | 1% | -1% | 3% | x | 3% | x | x | x
CCOC(=O)C(C(=O)OCC)N(C#N)c1nc(C)cc(C)n1 | x | -6% | 8% | 2% | -2% | -3.4% | -1% | 6%
CCN(CC)S(=O)(=O)c1ccc(Cl)c(C(=O)Oc2cccnc2)c1 | -20% | 10% | -2% | 0% | 9% | 2.2% | 5% | -12%
O=C1CC(N2CCN(c3ccc(F)cc3)CC2)C(=O)N1c1ccc2c(c1)OCO2 (stereo not given) | -11% | -2% | 1% | x | 17% | x | x | x
Cc1ccc(C)c(N(CC(=O)NC2CCCCC2)C(=O)CCC(=O)Nc2ccccn2)c1 | x | 2% | -22% | x | x | 1.4% | 12% | x
Nc1n[nH]c(-c2ccccc2)c1-c1ccccc1 | x | 1% | u | 7% | 1% | 2.1% | -5% | 0%
CCN(CC)CCNC(=O)CCc1nn(C)c(=O)c2ccccc12 | 0% | 6% | 6% | -1% | 2% | 2.0% | 4% | -4%
CN(C)C(CNc1nnnn1-c1ccccc1)c1ccco1 (stereo not given) | -17% | 5% | u | u | -10%[3.69 µM] | -0.9% | -14% | -8%
CC(NC(=O)CSCc1ccc(Br)cc1)c1ccccc1 (stereo not given) | -26% | -1% | -46% | u | -18% | x | x | -11%[46.1 µM]
CCO[C@H]1OC(C(=O)NC2CC2)=C[C@@H](C2CC2)[C@@H]1CCCO | -13% | 1% | 2% | x | 27% | x | x | x
Cc1ccc(Cc2c(C)nc3nc(SCC(=O)NCCCN4CCOCC4)nn3c2C)cc1 | -10% | -8% | x | 8.9µM* | -16% | x | x | -7%[46.1 µM]
CN(C)CCNC(=O)/C(=C/c1ccc(-c2cccc(Cl)c2)o1)NC(=O)c1ccccc1 | -16% | -29% | 7% | 8.2µM* | -3% | -6.2% | 7% | u
O=C1CC(c2ccccc2)CC(O)=C1C=Nc1cccc(Cl)c1 (stereo not given) | -2% | -65% | -68% | u | u | -4.9% | 1% | u
O=[N+]([O-])c1ccc(Sc2ncccn2)c([N+](=O)[O-])c1 | 14µM* | -5% | -1% | u | u | x | x | u
C/C(=N\NC(=O)c1ccccc1F)c1ccc(C#N)cc1 | 65%[activator] | -2% | -7% | x | 6% | x | x | x
Cn1c(=N)n(CC(=O)c2ccccc2)c2ccccc21 | 0% | -1% | 1% | 2µM* | -22% | x | x | 7.1µM*
COc1cccc(CSc2nc3ccccc3cc2C=O)c1 | 0% | -13% | -69% | u | 3% | 0.1% | -3% | u
CCN(CC)S(=O)(=O)c1ccc(N2CCCC2)c(NC(=O)Cc2cc(OC)c(OC)c(OC)c2)c1 | 10% | -1% | 2% | -13%[46.1 µM] | -3% | x | x | x
Cc1ccc(NC(=O)C2CCC(CNS(=O)(=O)c3cccc4nsnc34)CC2)c(Cl)c1 (stereo not given) | u | x | x | -3%[46.1 µM] | x | 0.1% | -1% | 12%[46.1 µM]
C=CCSC1=C(C#N)C(c2ccccc2C)CC(=O)N1 (stereo not given) | -21% | 0% | u | 3% | -7% | 1.4% | -3% | 13%
CC1CCN(C(=O)CCNC(=O)Cn2cnc3sc4c(c3c2=O)CCCC4)CC1 | -14% | 10% | 1% | 8% | 13% | -0.5% | u | -4%
Cc1ccc(C)c(NC(=O)COC(=O)Cc2ccsc2)c1 | -14% | 2% | -2% | -2%[46.1 µM] | 1% | x | x | -14%
CCc1ccc(N(CC(=O)NCc2cccnc2)S(=O)(=O)c2ccccc2)cc1 | 0% | 0% | 18% | x | -10% | x | x | x
O=C1C(C=NCc2ccccn2)=C(O)c2ccccc21 | x | 0% | 0% | 8% | 0% | -4.3% | 1% | u
COc1cc(C)c(C(N)=O)c(OC)n1 | -9% | -3% | u | 23% | 4% | 4.2% | 5% | 0%
COC(=O)c1ccccc1NC(=O)Nc1ccc2c(c1)OCO2 | 37%[activator] | 11% | -1% | -2% | 2% | 2.4% | -8% | 21%
CCN(CC)CCN(Cc1cc2cc(C)ccc2[nH]c1=O)C(=S)Nc1ccccc1 | -14% | 0% | 2% | u | -2% | x | x | -9%[46.1 µM]
Cn1c(COc2ccc(F)cc2)nc2ccccc21 | 24% | 2% | -35% | u | -9% | x | x | -1%[46.1 µM]
CN(NS(=O)(=O)c1ccc(Cl)cc1)c1cnn(C)c(=O)c1Cl | -2% | 1% | -2% | x | 15% | x | x | x
Nc1nc(Br)c2c(F)cccc2c1-c1ccccc1 | -24% | 4% | -6% | 5% | -12% | -0.6% | 3% | 7%
O=C1CC(C(=O)N(c2ccccc2)C(C(=O)NC2CCCC2)c2ccncc2)CS1 (stereo not given) | -3% | -1% | 2% | x | u | x | x | x
O=C(NCCCCNC(=O)C1CCCC1)C1CCCC1 | -15% | 2% | 15% | 1% | -1% | 2.7% | 2% | 20%
FC(F)(F)c1nc2ccccc2nc1N/N=C/c1ccc(Cl)cc1 | -4% | 3% | 5% | 5%[46.1 µM] | -7% | -5.1% | u | 17%
O=C(NC1CCN(C(=O)NCc2ccccc2)CC1)c1cccc(F)c1 | -20% | -1% | 4% | 2%[46.1 µM] | 22% | x | x | u
O=C(Oc1coc(CSc2ncccn2)cc1=O)c1ccc(Br)o1 | -4% | -25% | 5% | -2% | -4% | -19% | -19% | 5%
CCCCS(=O)(=O)Nc1ccc2ncn(C)c(=O)c2c1 | -8% | 2% | -5% | 5% | 11% | 3.0% | -10% | 0%
CC(C)(C)NC(=O)CSc1nc(O)cc(=O)n1-c1ccccc1 | x | -2% | 24% | 9% | 5% | 2.9% | -6% | -2%
